VACV E9 pol inh: blocks vaccinia virus processive DNA synthesis | in vitro processive DNA synthesis, absorbance read-out; hits give low values; some inactives read as strong as hits | normalized absorbance, % (no concentration beside the values) | actives 0.94% (n = 46,000) | AID 493162;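 active = replicate mean up to 90% and picked by the depositor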;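 also: 100% = median of the test wells of a plate; 100 nL library stock went into each well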
Numbers without * were called inactive; & = joins results of further samples.

SMILES	VACV E9 pol inh
O=C(Nc1ccccc1)Nc1nccc(-c2cc(OCC(F)(F)F)ccc2OCC(F)(F)F)n1	100.6
COC(=O)c1c(NC(=O)/C=C/c2ccccc2)sc2c1CCCC2	102.8
COC(=O)C(NC(=O)c1cccs1)C12CC3CC(CC(C3)C1)C2 (stereo not drawn)	99.7
O=C(c1cccc(Cl)c1)N1CCNCC1	111.2
CNc1ccccc1C(=O)OCC(=O)c1ccccc1	99.9
CC(C)N(C(=O)CSc1ccccc1Cl)c1ccccc1	99.2
O=C(Oc1ccc(Cl)c2cccnc12)N1CCCCC1	98.7
Cc1onc(-c2ccccc2)c1C(N)=O	96.3
N#Cc1ccc(Sc2ccc(Cl)cc2)nc1	100.7
NC(=S)c1cnccc1C(F)(F)F	100.5
COc1ccc(C(=O)NCCn2cc(SCC(=O)N3CCCCC3)c3ccccc32)cc1	95.6
O=C([C@@H](c1ccccc1)N1Cc2ccccc2C1=O)N1CCCC1	104.1
CCOC(=O)c1c(CC(C)C)csc1/N=C/C1C(=O)CCCC1=O	100.2
CN(C)CC1(CC(=O)O)CCCCC1	89.0
Cc1ccc(S(=O)(=O)N2C(=O)CCC2C(=O)N(Cc2nc(-c3cccc(C)c3)no2)C(C)C)cc1 (stereo not drawn)	89.3
O=C(NCCCN1CCOCC1)C1C2C=CC3(CN(Cc4cccs4)C(=O)C13)O2 (stereo not drawn)	100.1
O=C(CN1C(=O)CCC1=O)Nc1ccc2sccc2c1	101.0
N#CC1=C(N)Oc2c(oc(CO)cc2=O)C1c1ccsc1 (stereo not drawn)	93.8
CC(NC(=O)c1ccccc1OCC(=O)NC12CC3CC(CC(C3)C1)C2)c1ccccc1 (stereo not drawn)	100.7
NNC(=O)c1cc2c(s1)-c1ccccc1CC2	84.6
Oc1c(C(Nc2nccs2)c2cccnc2)ccc2cccnc12 (stereo not drawn)	100.2
Cc1cc(C#N)c2c(C)ccc(C(C)C)cc1-2	97.2
CCOc1nc(OCC)nc(-n2cc(-c3ccccc3)nn2)n1	99.4
CCC(=O)Nc1nnc(SCc2ccc(Br)cc2)s1	100.9
O=S(=O)(c1cccc2nsnc12)N1CCC(O)(c2cccc(C(F)(F)F)c2)CC1	104.9
O=C(c1ccco1)c1cn(Cc2ccccc2)c2ccccc12	102.3
N#Cc1ccc(CSC2=NCCN2)cc1	70.6*
Nc1nc(-c2ccccc2)cn1Nc1ccccc1	109.8
Clc1ccc(-c2csc(-c3ccc4c(c3)CCO4)n2)s1	107.9
COc1ccc(N2C(=O)CCC(C(=O)N3CCCCC3)C2c2ccc(OC)c(OC)c2)cc1 (stereo not drawn)	102.0
COC(=O)c1ccc(Cn2c[n+](N)cn2)cc1	96.1
CCC(C)NC(=O)COc1ccc(C(C)(C)c2ccccc2)cc1 (stereo not drawn)	100.2
CCN(C(=O)Cn1c(=O)oc2cc(S(=O)(=O)N3CCCC3)ccc21)c1ccccc1	103.0
CCCn1c(=O)cc(N)n(-c2ccc(OC(F)(F)F)cc2)c1=O	108.8
N#C/C(=C\c1ccccc1F)c1ccccc1	99.9
N#Cc1ccccc1NC(=O)c1cc(=O)c2ccccc2o1	100.8
CC1(C)OC(=O)N(Nc2ccccc2)C1(C)O (stereo not drawn)	100.5
COc1ccc(-c2csc(NCc3ccccc3)n2)cc1	98.2&104.0
Nn1c(-c2ccccn2)nnc1-c1ccccn1	97.5
Cc1ccc(Cn2cnc3ccccc32)cc1	100.7
CCOc1ccc(NC(=O)N2CCCC(CN3CCc4ccccc4C3)C2)cc1 (stereo not drawn)	107.2
CC(C)(C)c1cc2n(n1)C1=NCCN1C=N2	108.2
COc1ccccc1NCCC(=O)O	100.9
CCCOc1ccc2oc(=O)c3c(c2c1)CCCN3C(=O)CN1CCCc2ccccc21	102.9
COC(=O)c1cc(C(=O)OC)cc(N2Cc3nccnc3C2=O)c1	93.7
O=c1n(-c2ccccc2)c(=O)n2n1C1C=CC2C1	102.2
C[N+](C)(C)CCC(O)c1ccccc1 (stereo not drawn)	99.9
N#Cc1nc(-c2ccc(F)cc2)oc1NC1CCCCC1	100.3
O=C(NCc1ccc2c(c1)OCO2)C(F)(F)F	94.9
COc1ccc(OC)c(C(=O)c2coc3ccc(O)cc23)c1	100.0
COC(=O)c1oc2ccccc2c1-n1cccc1	80.8
O=C(NC1CCCC1)C1CCCN1C(=O)OCc1ccccc1 (stereo not drawn)	111.7
Oc1c(CN2CCc3ccccc3C2)cc(Cl)c2cccnc12	100.3
CCOC(=O)CSc1nc(-c2ccc(C)cc2)ns1	100.9
COc1ccc(N2CC(C(=O)OC(C)C(=O)c3ccccc3)CC2=O)cc1 (stereo not drawn)	104.5
OC(CNCCc1ccccn1)C(F)(F)F (stereo not drawn)	106.1
NC1=NN(c2ccccc2)C(=O)C1	99.5
CN(C)C=Nc1ccccc1C1C=NNC1=O (stereo not drawn)	94.7
O=C(Nc1nccs1)c1cc(Cl)sc1Cl	101.4
COc1cc2c(C(=O)NCCC(C)C)cn(C)c(=O)c2cc1OC	98.7

Following part:
SMILES	VACV E9 pol inh
O=C1c2ccccc2C(=O)N1C(CO)C(O)c1ccccc1 (stereo not drawn)	102.4
O=P1(N(CCCl)CCCl)NCCCO1 (stereo not drawn)	103.0
COc1cccc(C2c3c(oc4ccccc4c3=O)C(=O)N2CCCN2CCOCC2)c1 (stereo not drawn)	99.6
CCC(C(=O)N(C)c1ccccc1)c1ccccc1 (stereo not drawn)	96.0
COc1cccc(C(=O)NCCN2CCN(c3nccc(C(F)(F)F)n3)CC2)c1	98.6
O=C(O)CCc1nc2ccccc2[nH]1	100.5
CCn1c(C(=O)NCCCN2CCc3ccccc3C2)cc2sccc21	102.2
CCNC(=O)C1CCCN1S(=O)(=O)c1ccc(C)cc1 (stereo not drawn)	91.5
O=C(c1cc2c(Cl)nc3ccccc3c2s1)N1CCCC1	98.0
CC(=O)Nc1ccc(NC(=O)Oc2ccccc2)cc1	99.9
Cc1cc(=O)cc(C)n1-c1ccccc1	109.1
CC1CCCCN1CCNc1nc(=S)[nH]c2ccccc12 (stereo not drawn)	83.6
C/C(CCc1oc2ccccc2c1-c1ccc(C)o1)=N\O	99.9
CCN(Cc1ccncc1)C(=O)c1ccc(F)cc1F	86.6
NNC(=O)CN1c2ccccc2Sc2ccccc21	102.3
Cc1ccc(C(=O)NCO)cc1	104.5
CCCC(=O)N(CC)Cc1cc2cc(OC)ccc2[nH]c1=O	104.4
C#CCN(C)Cc1ccccc1	96.1
O=C(O)C(Cc1ccccc1)N1C(=O)CCC1=O (stereo not drawn)	104.8
N#Cc1ccc(-c2cccs2)nc1SCc1ccncc1	100.5
CCOC(=O)C1=C(C)NC(=O)CC1c1ccc(F)cc1 (stereo not drawn)	90.4
COc1ccc(C(=O)OC2CCN(C)CC2)cc1	91.5
Cc1ccc(N2CCN(C(=O)C(c3ccccc3)c3ccccc3)CC2)cc1C	100.3
CCOC(=O)N1CCC(NC(=O)CCc2cn(Cc3ccccc3C)c3ccccc23)CC1	95.1
COc1ccc(/C=C(\C#N)S(=O)(=O)c2ccc(Cl)cc2)cc1	107.5
S=C(NCCSc1ccc(Cl)cc1)Nc1cccc(Cl)c1	93.6
CC(C)(C)C(=O)Nc1scc(-c2cccs2)c1C(=O)O	94.8
CC(C)Sc1nnc(NC(=O)c2cccs2)s1	90.7
Cn1c(=S)n(CN2CCC3(CC2)OCCO3)c2ccccc21	100.2
Clc1ccc2oc(-c3ccccc3)c/c(=N\c3nccs3)c2c1	99.8
O=C(NCc1cccc(Cl)c1)c1ccc(COc2ccc(Cl)cc2)o1	100.3
Cc1cc2c3c(C)n(Cc4ccccc4)c(C)c3c(C)nn2c1	100.3
O=C1CNC(=S)N1CCc1ccccc1	90.3
O=C(CC(c1ccccc1)C1CCCCC1=O)c1ccccc1 (stereo not drawn)	102.2
CCCn1c(CCCNC(=O)Cc2ccccc2)nc2ccccc21	97.3
CC(C)N(Cc1ccccc1)C(=O)Cc1noc2ccccc12	96.6
Cc1ccn2cc(CCNC(=O)CC(C)(C)C)nc2c1	98.0
c1ccc(C2CC(c3ccco3)n3ncnc3N2)cc1 (stereo not drawn)	100.0
Cc1cc(OC(C)C(=O)O)c2c3c(c(=O)oc2c1)CCCC3 (stereo not drawn)	97.8
COc1ccc(OC(=O)c2csc(COc3ccc4nonc4c3)n2)cc1	97.1
Oc1c(Cl)cc(Cl)cc1C(O)(C(F)(F)F)C(F)(F)F	83.7*
O=C(OCC(=O)N1CCc2ccccc21)c1ccccc1O	98.5
CCN1C(=O)/C(=C/c2cn(CC)c3ccccc23)NC1=S	99.9
CCCc1nc2ccccc2n1CC(=O)Nc1ccc(OC)cc1OC	103.2
O=C(NC12CC3CC(CC(C3)C1)C2)n1ncc2cc(Cl)ccc21	102.7
OCCCc1nc2ccccc2n1CCCOc1ccccc1	98.2
CCOc1cc(CN2CCN(C(=O)CC(C)C)CC2)ccc1OC	105.8
Cn1cc(NC(=O)NC2CCCCC2)c2ccccc2c1=O	105.5
CC(C)(C)S(=O)(=O)c1ccc2ccccc2c1	99.6
CCCc1cc(=O)oc2cc(OCc3ccccc3)ccc12	99.7
O=C1OC2(C(=O)c3ccccc3C2=O)/C(=C(\O)c2ccc(F)cc2)C1=O	99.8
CC(NC(=O)c1ccccc1)C1COc2ccccc2O1 (stereo not drawn)	101.0
Cc1occc1C(=O)Nc1ccc(F)c(F)c1	100.0
N#CC(C(=O)O)C1C(=O)Nc2ccccc21 (stereo not drawn)	109.0
CCc1ccc(NC(=O)CC2C(=O)N(c3cccc(C)c3)C(=O)N2C2CC2)cc1 (stereo not drawn)	99.6
CCOc1ccccc1CNC(=O)CCC(=O)N1CC(C)Oc2ccc(Cl)cc21 (stereo not drawn)	100.1
Cc1cc(C)nc(-n2nc(C)cc2NC(=O)C(C)C)n1	102.5
COc1ccc(S(=O)(=O)n2ccnc2C)cc1	101.2
CNC(=O)Nc1cccc(-c2cc(-c3c(Cl)cccc3Cl)no2)c1	98.3
CNC(=O)C12CCC(C)(C(=O)C1)C2(C)C (stereo not drawn)	99.7

A draw from above in order of length of the SMILES, low to high:
SMILES	VACV E9 pol inh
C#CCN(C)Cc1ccccc1	96.1
O=C(O)CCc1nc2ccccc2[nH]1	100.5
Cc1cc(=O)cc(C)n1-c1ccccc1	109.1
CN(C)C=Nc1ccccc1C1C=NNC1=O (stereo not drawn)	94.7
Cc1occc1C(=O)Nc1ccc(F)c(F)c1	100.0
COc1cccc(C2c3c(oc4ccccc4c3=O)C(=O)N2CCCN2CCOCC2)c1 (stereo not drawn)	99.6
CCN(C(=O)Cn1c(=O)oc2cc(S(=O)(=O)N3CCCC3)ccc21)c1ccccc1	103.0

(next part)
SMILES	VACV E9 pol inh
COC(=O)c1cc2sccc2n1C(C)C(=O)N(C)c1ccc(F)cc1 (stereo not drawn)	97.1
Cc1ccc2nc(S/C=C/C(=O)c3ccccc3)[nH]c2c1	105.6
COC(=O)C1SC2(C(F)(F)F)CC1(O)c1c(c(OC)c3occc3c1OC)O2 (stereo not drawn)	100.2
O/N=C1\CCCc2c1nc(-c1ccccc1Cl)n2O	102.3
Cc1cc(NS(=O)(=O)c2ccc3c(c2)CC(=O)N3)ccc1Br	102.2
COc1ccc(-n2c(SC)nnc2-c2c[nH]c3ccccc23)cc1	102.4
COC(=O)C1CN(C(=O)COc2ccccc2)c2ccccc2O1 (stereo not drawn)	102.1
O=S(=O)(Nc1ccc(N2CCCCC2)cc1)c1cccc(Cl)c1	80.6
COc1ccc2c(Sc3ccc(Cl)cc3)c(C(=O)N(C)Cc3ccccc3)[nH]c2c1	101.4
CCN(Cc1ccccc1)S(=O)(=O)c1cc(Cl)ccc1Cl	100.6
CCN1C=C(C(=O)OC)C(c2ccc(Cl)cc2)C(C(=O)OC)=C1	98.2
CC(=O)N1CCN(c2ccc(NC(=O)COc3cc(C)c(Cl)c(C)c3)cc2)CC1	86.9
FC(F)(F)c1cccc(-c2csnn2)c1	95.7
Cc1ccn2c(NC(=O)c3ccc(C)c(C)c3)c(-c3cccs3)nc2c1	107.1
CCCCn1c(-c2ccc(OC)cc2)nc2ccccc21	99.9

4 of these compounds in another layout.
> COC(=O)c1cc2sccc2n1C(C)C(=O)N(C)c1ccc(F)cc1 (stereo not drawn)
  VACV E9 pol inh: 97.1

> Cc1ccc2nc(S/C=C/C(=O)c3ccccc3)[nH]c2c1
  VACV E9 pol inh: 105.6

> COC(=O)C1SC2(C(F)(F)F)CC1(O)c1c(c(OC)c3occc3c1OC)O2 (stereo not drawn)
  VACV E9 pol inh: 100.2

> O/N=C1\CCCc2c1nc(-c1ccccc1Cl)n2O
  VACV E9 pol inh: 102.3

Next part.
SMILES	VACV E9 pol inh
CCOc1ccc2c(=O)c(-c3ccccc3)coc2c1	101.2
CC(C)N(Cc1nc(-c2ccccc2)no1)C(=O)c1ccccc1	102.2
CC1CCCC(C)N1C(=O)COC(=O)/C=C/c1ccco1 (stereo not drawn)	104.7
COc1ccc(C(=O)NCc2c(-c3ccccc3)noc2C)cc1	101.3
Cc1ccc(C(C)C)c(OCc2ccc(N)cc2)c1	100.8
COc1ccccc1CNC(=O)c1ccc2nc3c(cc2c1)CCS3	84.5
O=C(CC(c1ccco1)C1CCCCC1=O)c1ccco1 (stereo not drawn)	102.7
Cc1ccccc1NC(=S)N1CCC(N(C)C(C)C)CC1	97.9
O=C1NC(c2ccc(O)cc2)C(C(=O)c2ccccc2)C(O)(C(F)(F)F)N1 (stereo not drawn)	99.9
CS(=O)(=NS(=O)(=O)c1cccs1)c1ccc(OC(=O)c2ccc(Cl)cc2)cc1 (stereo not drawn)	99.0
N#C/C(=C1\CCCN1)c1nc2ccccc2s1	97.8
CCC(C)c1ccc(NC(=O)C2CC(=O)N(c3ccc(C)cc3)C2)cc1 (stereo not drawn)	100.0
COC(=O)NC1Sc2ccccc2N=C1c1ccccc1 (stereo not drawn)	102.4
COCC(C)NC(=O)c1c(-c2ccccc2)noc1C (stereo not drawn)	94.3
Cc1ccc(Cl)cc1NC(=S)N(N)CCO	100.2
Cc1ccccc1NS(=O)(=O)c1ccc2c(c1)CCN2C(=O)C1CCC1	94.8
O=C(O)C1CCCCC1C(=O)Nc1cccc(F)c1 (stereo not drawn)	100.0
Cc1cc(NC(=O)c2cc(=O)c3ccccc3o2)no1	100.7

An excerpt. The share of hits here may be higher or lower than overall.
